nsP2pro primary – CHIKV nsP2 protease inhibition, primary qHTS; Q8JUX6; FRET peptide cleavage, nsP2pro, fluorescence 1 h; Potency, µM (titrated, usually from 24.9 µM), without a hit: at the highest dose activity change, negative = inhibition, most hits filed as inhibitors; 1.1% of 31,000 active; AID 1964107; active means well fitted inhibition curve with a large enough effect; inconclusive means small, poorly fitted or top-dose-only effect; inactive means no such curve, though single readings can be large or run the other way; note: nearly all actives have a fitted effect of over 60% in size; a reference inhibitor and vehicle were the controls
Target sequence (Q8JUX6 whole entry, looked up): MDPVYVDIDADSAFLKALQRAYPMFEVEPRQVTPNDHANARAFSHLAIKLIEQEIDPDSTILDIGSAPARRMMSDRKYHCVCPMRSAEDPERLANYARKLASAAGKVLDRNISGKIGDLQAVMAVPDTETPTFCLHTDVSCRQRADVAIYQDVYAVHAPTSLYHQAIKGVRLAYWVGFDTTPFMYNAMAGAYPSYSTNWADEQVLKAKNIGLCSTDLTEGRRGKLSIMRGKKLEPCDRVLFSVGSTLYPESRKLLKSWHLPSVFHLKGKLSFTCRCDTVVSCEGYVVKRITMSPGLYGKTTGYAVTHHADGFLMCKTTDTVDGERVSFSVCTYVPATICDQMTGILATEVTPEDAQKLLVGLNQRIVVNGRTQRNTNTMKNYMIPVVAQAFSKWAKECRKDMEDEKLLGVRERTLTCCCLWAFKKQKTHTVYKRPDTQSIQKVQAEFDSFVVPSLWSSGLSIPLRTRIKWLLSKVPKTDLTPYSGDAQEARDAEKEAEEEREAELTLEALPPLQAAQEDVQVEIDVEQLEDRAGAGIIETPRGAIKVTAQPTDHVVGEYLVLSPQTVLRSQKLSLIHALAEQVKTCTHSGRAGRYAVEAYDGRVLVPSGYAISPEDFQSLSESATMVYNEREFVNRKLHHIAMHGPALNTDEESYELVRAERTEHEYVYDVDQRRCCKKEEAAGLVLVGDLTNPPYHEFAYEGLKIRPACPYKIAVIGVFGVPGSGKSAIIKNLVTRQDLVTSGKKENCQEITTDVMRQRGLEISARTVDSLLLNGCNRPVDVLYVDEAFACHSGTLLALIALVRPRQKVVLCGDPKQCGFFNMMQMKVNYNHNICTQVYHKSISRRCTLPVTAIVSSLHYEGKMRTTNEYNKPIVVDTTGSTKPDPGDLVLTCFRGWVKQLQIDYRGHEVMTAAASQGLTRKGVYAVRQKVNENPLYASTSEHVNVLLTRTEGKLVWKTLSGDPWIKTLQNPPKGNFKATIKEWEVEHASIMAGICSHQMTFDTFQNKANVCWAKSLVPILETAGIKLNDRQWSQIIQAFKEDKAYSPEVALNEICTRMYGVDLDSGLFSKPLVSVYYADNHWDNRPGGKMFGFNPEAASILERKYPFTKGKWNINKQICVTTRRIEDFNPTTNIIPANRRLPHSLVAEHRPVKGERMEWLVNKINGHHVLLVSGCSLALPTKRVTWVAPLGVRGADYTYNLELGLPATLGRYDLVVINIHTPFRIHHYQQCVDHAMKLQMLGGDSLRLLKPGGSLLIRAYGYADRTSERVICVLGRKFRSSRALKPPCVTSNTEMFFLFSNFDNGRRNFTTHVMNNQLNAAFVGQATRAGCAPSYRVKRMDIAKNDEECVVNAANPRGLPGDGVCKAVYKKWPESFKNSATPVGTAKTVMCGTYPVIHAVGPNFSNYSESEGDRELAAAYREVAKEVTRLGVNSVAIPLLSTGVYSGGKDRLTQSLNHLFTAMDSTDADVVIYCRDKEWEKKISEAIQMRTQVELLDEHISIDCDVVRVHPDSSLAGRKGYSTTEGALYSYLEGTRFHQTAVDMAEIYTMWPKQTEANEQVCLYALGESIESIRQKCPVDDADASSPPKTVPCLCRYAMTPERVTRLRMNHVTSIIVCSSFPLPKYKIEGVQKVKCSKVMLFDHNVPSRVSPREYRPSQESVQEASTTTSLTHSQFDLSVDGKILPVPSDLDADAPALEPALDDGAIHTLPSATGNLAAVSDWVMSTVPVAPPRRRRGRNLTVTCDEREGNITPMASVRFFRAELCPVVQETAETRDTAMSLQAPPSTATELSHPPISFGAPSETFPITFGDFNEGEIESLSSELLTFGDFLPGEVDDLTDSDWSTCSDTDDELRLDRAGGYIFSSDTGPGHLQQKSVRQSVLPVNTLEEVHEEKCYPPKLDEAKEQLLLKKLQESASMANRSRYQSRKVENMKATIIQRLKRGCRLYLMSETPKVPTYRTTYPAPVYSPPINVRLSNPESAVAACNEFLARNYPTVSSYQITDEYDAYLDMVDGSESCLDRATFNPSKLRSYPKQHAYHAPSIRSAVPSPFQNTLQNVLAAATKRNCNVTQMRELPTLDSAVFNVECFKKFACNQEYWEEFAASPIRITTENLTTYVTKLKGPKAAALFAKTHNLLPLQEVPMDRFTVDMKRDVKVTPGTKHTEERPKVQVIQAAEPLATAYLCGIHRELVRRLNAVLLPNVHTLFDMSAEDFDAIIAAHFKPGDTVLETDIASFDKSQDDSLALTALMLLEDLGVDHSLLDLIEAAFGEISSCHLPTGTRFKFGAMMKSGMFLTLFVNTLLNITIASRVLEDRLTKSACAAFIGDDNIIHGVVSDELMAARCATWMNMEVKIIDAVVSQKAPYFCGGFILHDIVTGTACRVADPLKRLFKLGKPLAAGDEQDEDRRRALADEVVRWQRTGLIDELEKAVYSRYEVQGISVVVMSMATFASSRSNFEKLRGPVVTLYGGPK
The depositor's hits bear a star; i = inactive; ? = inconclusive; & = joins results of further samples; [ ] = dose if it differs, or a comment. % is set by controls: 0 for no effect and ±100 for the full control effect; potency is the fitted concentration of half-maximal effect. These rows are one share of the data; rates above refer to the full screens.

SMILES	nsP2pro primary
O=C1CCCC2=C1C(c1[nH]ncc1Cl)N=C(Nc1nc3cccc(Cl)c3o1)N2 (stereo not drawn)	i
CCCc1nc(C(=O)N2CCC3(CCCNC3)C2)cs1 (stereo not drawn)	i
CCOC(=O)c1ccoc1-c1ccc2ncnc(NCCc3cnc[nH]3)c2c1	i
CCOC(=O)Nc1cc(-c2ccc(C)c(NS(C)(=O)=O)c2)nn2c(C)nnc12	2.4%
O=C(CNC(=O)c1ccccc1)OC(CCc1ccccc1)C(=O)Nc1cc(C(F)(F)F)ccc1Cl (stereo not drawn)	1.8%
C=C1[C@@H]2CC[C@@]3(C)[C@H](c4ccoc4)OC(=O)C[C@]13O[C@H]1CC(=O)C(C)(C)[C@H](CC(=O)OC)[C@]12C	?
Cc1cc(OCCCS(C)(=O)=O)cc(C)c1-c1cccc(COc2ccc(C3=CC(=O)NS3=O)cc2)c1 (stereo not drawn)	484.7%[activator]
O=C(c1ccc(C2CCCNC2)cc1)N1CCC(Oc2cccc(F)c2)CC1 (stereo not drawn)	2.4%
O=C(C1CC1)N1C[C@@H]2OCC(=O)N(Cc3ccc(F)cc3)[C@@H]2C1	i
COc1ccc(S(=O)(=O)N2C[C@@H]3C[C@H](C2)c2c(-c4cccs4)ccc(=O)n2C3)cc1	?
CC1CCN(c2cc(NC(=O)c3ccccc3)ncn2)CC1	-7.3%
CC(C)CC(=O)O[C@@H]1OC=C(CO[C@@H]2O[C@H](CO)[C@@H](O)[C@H](O)[C@H]2O)[C@H]2[C@@H]3O[C@H]3[C@@](O)(CO)[C@@H]12	?
Cc1ccc(-c2nn3c(-c4ccccc4C)nnc3c3ccccc23)cc1	-16.1%
COc1ccc(C2CC(=O)N3CN(C4CCCCC4)CSC3=C2C#N)c(OC)c1 (stereo not drawn)	8.91µM*
Cc1ccccc1C(=O)N1CCc2cc(-n3cc(NC(=O)Cc4ccccc4)cn3)ccc21	-7.0%
COc1ccccc1-c1c(C(F)(F)F)oc2c(CN3CCCCC3C)c(O)ccc2c1=O (stereo not drawn)	-16.2%
Cc1ccc2c(c1)C(=O)[C@]1(O)CCN(c3ccccc3)C1=N2	0.9%
COC(=O)CCc1ccc(OCC(O)CNC(C)C)cc1 (stereo not drawn)	13.0%&-4.8%
O=C(NCC1CN(C(=O)Cc2ccc(C(F)(F)F)cc2)CC12CN(c1ccccc1)C2)c1ccccc1 (stereo not drawn)	-27.9%
Cc1nn(-c2ccccc2)c(C)c1/C=N/N1CCN(Cc2ccccc2)CC1	8.1%
CCCCCCCCCCCC[N+](C)(C)CCOc1ccccc1	137.2%[activator]
Cc1nc2n(c(=O)c1CCN1CCC(c3noc4cc(F)ccc34)CC1)CCCC2	5.3%
O=C(O)CCC(=O)Nc1ccc(S(=O)(=O)Nc2nccs2)cc1	-2.5%
N#Cc1cccc(NC(=O)NC[C@H]2C[C@@H]3CCN2C[C@@H]3CN2CCN(c3ccccn3)CC2)c1	i
Cc1cc(S(=O)(=O)N2CCN(Cc3noc(CCC(=O)N4CCCCC4)n3)CC2)ccc1F	?
(listing goes on)
SMILES	nsP2pro primary
COc1ccc2cc1Nc1ccc(cc1)C[C@H](NCc1ccc3c(c1)CCO3)C(=O)N(C)[C@H](C(=O)NCCC(C)C)C2	-20.3%
c1cc2c(cc1CN1CCOCC1)CNCCO2	-1.9%
CCC(=O)N1CCc2cc(Br)cc(S(=O)(=O)CCC(=O)Nc3cccc(CC)c3)c21	-7.8%
CCn1c(=O)c2cc(C(=O)NCCCN3CCC(C)CC3)sc2c2ccccc21	31.1%[activator]
Clc1cccc(N2CCN(c3c4c(nc5nncn35)CCC4)CC2)c1	9.8%
CC(C)(C)C(=O)Nc1ccc2nc(SCC(=O)N3CCOCC3)sc2c1	-7.3%
COC(=O)c1cc(NS(=O)(=O)c2ccc3c(c2)OCCO3)ccc1Cl	-13.4%
C#Cc1cccc(Nc2ncnc3cc(OC)c(OC)cc23)c1	12.7%
O=C(c1cccnc1)N1C[C@@H]2OCC(=O)N(CC3CCCCC3)[C@@H]2C1	-8.1%[39.2 µM]
CC(Oc1ccccc1)C(=O)Nc1ccc(C(=O)OCc2cc(=O)n3nc(C(C)C)sc3n2)cc1 (stereo not drawn)	-15.7%
COc1ccc2occ(CC(=O)Nc3ccc(S(=O)(=O)Nc4nccc(C)n4)cc3)c2c1	48.9%[activator]
CC1CCC23COC(=O)C2=CC(O)CC3C1(C)CCC1=CC(O)OC1=O (stereo not drawn)	226.2%[activator]
C[C@@H]1O[C@@H](O[C@H]2[C@H](O[C@H]3[C@H](O[C@H]4CC[C@@]5(C)C(CC[C@]6(C)C5CC=C5[C@@H]7CC(C)(C)C[C@@H](O)[C@]7(C)CC[C@]56C)C4(C)C)O[C@H](C(=O)O)[C@@H](O)[C@@H]3O)O[C@H](C(=O)O)[C@H](O)[C@@H]2O)[C@H](O)[C@H](O)[C@H]1O (stereo partly drawn)	25.5%[5.1 µM]
O=C(N[C@@H]1CCN(C(=O)c2n[nH]c3ccccc23)C[C@H]1O)c1cccnc1	2.5%
Cc1ccc(Cl)c(Nc2ccccc2C(=O)O)c1Cl	-0.5%
CC(C)(O)c1ccc2c(c1)C(O)CC1C(C)(C(=O)O)CCCC21C (stereo not drawn)	-5.4%
COc1ccccc1N1CCN(CCN2C(=O)CC3(CCCC3)CC2=O)CC1	-7.5%
C=C(C(=O)OC)[C@]12O[C@@](C)(CC[C@@]3(O)/C(=C\C)C(=O)O[C@]3(C)C[C@@H]1OC(=O)C(CO)CN1CCCC1C(=O)O)CC2=O (stereo partly drawn)	?
NC(=O)c1nnn([C@H]2CCN3C(=O)[C@@H](Cc4ccccc4)NC(=O)[C@@H]3C2)c1C(N)=O	-6.0%[39.2 µM]
C[C@H](Cc1cc2c(c(C(N)=O)c1)N(CCCO)CC2)NCCOc1ccccc1OCC(F)(F)F	1.8%
COCCn1ccc2c(C3=CCOCC3)nc(-c3cccc4[nH]ccc34)cc21	-6.1%[39.2 µM]
COc1ccc(C(=O)NC2CCN(c3ccnc4ccnn34)C2)cc1 (stereo not drawn)	-3.8%[39.2 µM]
COc1cccc(C(=O)N2CC(=O)N(Cc3ccc(Cl)cc3)CC(O)C2)c1 (stereo not drawn)	-7.0%
Cc1ccc(CN2COc3cc(C)c4c(oc(=O)c5ccccc54)c3C2)cc1	11.3%
Cc1cc(Nc2nn(-c3ccccc3)c(=O)c3ccccc23)n[nH]1	28.6%
Other entries
SMILES	nsP2pro primary
CNC(C)CC1CCCCC1 (stereo not drawn)	9.0%[39.2 µM]
CNC(=O)N1CCCC1c1nc(C2CN(C(=O)c3cnccn3)C2)no1 (stereo not drawn)	i
COc1ccnc(NC(=S)N2CCN(c3cccc(C(F)(F)F)n3)CC2)c1	?
Cc1ccc(Cl)cc1N1CCN(C(=O)Cn2cnc3onc(-c4ccc(F)cc4)c3c2=O)CC1	-18.2%
COc1cc(O)cc(C)c1C(=O)O[C@H]1[C@@H](O)[C@@H](n2ccc(=O)[nH]c2=O)O[C@@H]1CO	-6.8%[10 µM]
Cc1noc2ncnc(N3CCC4(CC3)CC(c3ccccc3)CN(C)C4)c12 (stereo not drawn)	i
OC[C@H]1O[C@@H](OC[C@H]2O[C@@H](OCc3ccccc3)[C@H](O)[C@@H](O)[C@@H]2O)[C@H](O)[C@@H](O)[C@@H]1O	?
CN(Cc1ccccc1)Cc1nnc(C(=O)N2CCC[C@@H]2c2cccc(F)c2)n1-c1ccccc1	-2.6%
CC(O)CO[C@@H]1O[C@H](CO)[C@@H](O)[C@H](O)[C@H]1O (stereo partly drawn)	?
CCN1CCN(C(=O)Cn2ncc3c4ccccc4n(Cc4c(C)cc(C)cc4C)c3c2=O)CC1	23.5%
CCCS(=O)(=O)N1CCC(N2C(=O)[C@H](OCCOC)[C@@H]2c2ccncc2)CC1	i
CCC(Cn1nnc2ccccc2c1=O)NC(=O)Nc1cc(C)cc(C)c1 (stereo not drawn)	-7.5%
Cc1cccc(C(=O)N2CC(N(C)Cc3cccnc3)C2)c1	1.2%
COc1cc(O)c(C(CC(=O)N2CC(C)CC(C)C2)c2ccc(C)cc2)c(OC)c1 (stereo not drawn)	-1.6%
O=C(Oc1cccnc1)c1cccs1	1.4%
O=S(=O)(NCCS(=O)(=O)N1CCN(c2ccccc2)CC1)c1ccc(Cl)cc1	-25.8%
Cc1cc(NC(=O)n2ncc3c(C)cccc32)ccc1Br	-20.7%
CC(C)OCCCNC(=O)CCCn1c(=O)[nH]c2ccsc2c1=O	-15.0%
CCOC(=O)C1CCCN(C(=O)C2CCc3nnc(C4CC4)n32)C1 (stereo not drawn)	-16.2%
COc1ccc(C2Nc3ccccc3C(=O)N2Cc2cccc(Cl)c2)cc1COc1ccc(NC(C)=O)cc1 (stereo not drawn)	-4.3%
O=C(NC1CCN(c2cc(-c3ccc(F)cc3)[nH]n2)C1)c1cc2ccccc2[nH]1 (stereo not drawn)	-3.0%
O=C(c1ccc(CC2CC(=O)N(c3ccccc3)C2)nc1)N1CCCC1 (stereo not drawn)	-2.9%
O=C(C1CCCC1)N1CC2(CCN(Cc3ccc(Cl)cc3)C2)Cc2ccccc21 (stereo not drawn)	-2.1%
Cc1ccc(OCCn2c(CCNC(=O)c3ccccc3F)nc3ccccc32)cc1	4.2%
COc1cccc(C(=O)N2CCC3(CC2)CCN(Cc2cccs2)c2ccccc2O3)c1	-10.8%
Next section:
SMILES	nsP2pro primary
COc1ccc(F)cc1-c1cccc(C(=O)NCC(=O)N2CCN(C)CC2)c1	-1.8%
Cc1noc(C2CC3(CCN(C(=O)Nc4ccccc4)CC3)CN2C)n1 (stereo not drawn)	-2.1%
CCOC(=O)C(Cc1ccccc1)NC(=O)CCc1c(C)nc2nc(C)nn2c1C (stereo not drawn)	-13.4%
COc1ccccc1CC(=O)NCCn1cccc1-c1nc(-c2ccccc2)no1	i
O=C(Nc1nc2c(F)cccc2s1)c1ccc(S(=O)(=O)N2CCCc3ccccc32)cc1	-12.5%
O=C(CC1COCCN1)N1CCC2(CCC(=O)N(CCc3ccccc3)C2)CC1 (stereo not drawn)	-7.8%
c1ccc2sc(SSc3nc4ccccc4s3)nc2c1	-15.0%[10 µM]
O=S(=O)(NCCc1nnc2ccc(SCc3c(F)cccc3Cl)nn12)c1ccccc1	-8.5%
COc1ccc(C(=O)c2cn(Cc3cccc(C)c3)c3cc4c(cc3c2=O)OCCO4)cc1OC	-12.4%
CN1CCN(C(=O)c2ccc(Nc3nccc(-c4cccs4)n3)cc2Cl)CC1	-1.9%
Cc1ccc(N[S+](=O)([O-])c2cc3c(cc2Cl)CCC(=O)N3)cc1Br	-1.3%
Cc1nc(-c2cn(C3CCCN(C(=O)C(C)Oc4ccccc4)C3)nn2)no1 (stereo not drawn)	i
N#Cc1nc(Nc2cc(F)cc(Cl)c2)nc(NC2CCCC2)n1	0.6%
COC(C)(C)CCn1nc(Nc2c(C)cccc2C)c2cnc(Nc3ccc(OCCN4CCCC4)c(F)c3)nc21	112.4%[activator]
C#CCNC(=O)[C@@H]1CCCN1[C@@H](C(=O)NC)c1ccccc1	-12.0%[39.2 µM]
COc1cc(C(C)=O)ccc1O[C@@H]1O[C@H](CO[C@@H]2OC[C@@H](O)[C@H](O)[C@H]2O)[C@@H](O)[C@H](O)[C@H]1O	-10.4%[10 µM]
CC(C)C(NS(=O)(=O)c1ccc2c(c1)oc(=O)n2C)C(=O)N1CCN(c2cccc(Cl)c2)CC1 (stereo not drawn)	-0.8%
C=C(C(=O)O)C1CCC(C)C2CCC(=O)OC2(C)C1 (stereo not drawn)	?
Cc1nn(CCO)cc1CN1CCC2(CC1)C(C(=O)O)CC(=O)N2C (stereo not drawn)	-9.3%
O=C(NCc1ccccc1Cl)C1CCCN(S(=O)(=O)c2cccc3nsnc23)C1 (stereo not drawn)	-16.4%
C=C(C(=O)O[C@H]1C/C(C)=C/CC/C(CO)=C/[C@H]2OC(=O)C(=C)[C@H]12)C(O)CO (stereo partly drawn)	5.44µM*
Cc1cc(NS(=O)(=O)c2ccc(NC(=O)Cc3ccc(Cl)c(F)c3)cc2)no1	i
Cc1ccc(Cl)cc1NC(=O)Nc1cn(CC(C)C)c(=O)c2ccccc12	?
Cc1cccc(C)c1NC(=O)Cn1cc(C(=O)C2CC2)c2ccccc21	-18.4%
Nc1c(-c2nc(-c3cccs3)no2)nnn1-c1ccccc1Cl	-20.9%
CC(C)S(=O)(=O)NC[C@@H]1CC(c2ccc(N3CCCC3)c(F)c2)=NO1	-23.8%
COc1ccc(-c2nc(Cn3c(-c4ccc(Cl)cc4)nc(C)c(CCO)c3=O)c(C)o2)cc1	i
